Bioassay records as filed in PubChem.
NPR1 antag – human Npr1 receptor antagonism; P16066; HEK293 hNpr1 GloSensor cGMP, ANP-stimulated luminescence; Potency, µM (titrated, usually from 46.3 µM), for inactives: top-dose activity change, negative = inhibition, most hits filed as inhibitors; hit rate 1.6% among 76,000; active = well fitted inhibition curve with a large enough effect; inconclusive = small, poorly fitted or top-dose-only effect; inactive = no such curve, though single readings can be large or run the other way;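 further: nearly all actives have a fitted effect of over 60% in size; nearly all hits also lower the signal before the agonist is added; a reference antagonist and vehicle were the controls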
Target sequence (P16066 whole entry, looked up): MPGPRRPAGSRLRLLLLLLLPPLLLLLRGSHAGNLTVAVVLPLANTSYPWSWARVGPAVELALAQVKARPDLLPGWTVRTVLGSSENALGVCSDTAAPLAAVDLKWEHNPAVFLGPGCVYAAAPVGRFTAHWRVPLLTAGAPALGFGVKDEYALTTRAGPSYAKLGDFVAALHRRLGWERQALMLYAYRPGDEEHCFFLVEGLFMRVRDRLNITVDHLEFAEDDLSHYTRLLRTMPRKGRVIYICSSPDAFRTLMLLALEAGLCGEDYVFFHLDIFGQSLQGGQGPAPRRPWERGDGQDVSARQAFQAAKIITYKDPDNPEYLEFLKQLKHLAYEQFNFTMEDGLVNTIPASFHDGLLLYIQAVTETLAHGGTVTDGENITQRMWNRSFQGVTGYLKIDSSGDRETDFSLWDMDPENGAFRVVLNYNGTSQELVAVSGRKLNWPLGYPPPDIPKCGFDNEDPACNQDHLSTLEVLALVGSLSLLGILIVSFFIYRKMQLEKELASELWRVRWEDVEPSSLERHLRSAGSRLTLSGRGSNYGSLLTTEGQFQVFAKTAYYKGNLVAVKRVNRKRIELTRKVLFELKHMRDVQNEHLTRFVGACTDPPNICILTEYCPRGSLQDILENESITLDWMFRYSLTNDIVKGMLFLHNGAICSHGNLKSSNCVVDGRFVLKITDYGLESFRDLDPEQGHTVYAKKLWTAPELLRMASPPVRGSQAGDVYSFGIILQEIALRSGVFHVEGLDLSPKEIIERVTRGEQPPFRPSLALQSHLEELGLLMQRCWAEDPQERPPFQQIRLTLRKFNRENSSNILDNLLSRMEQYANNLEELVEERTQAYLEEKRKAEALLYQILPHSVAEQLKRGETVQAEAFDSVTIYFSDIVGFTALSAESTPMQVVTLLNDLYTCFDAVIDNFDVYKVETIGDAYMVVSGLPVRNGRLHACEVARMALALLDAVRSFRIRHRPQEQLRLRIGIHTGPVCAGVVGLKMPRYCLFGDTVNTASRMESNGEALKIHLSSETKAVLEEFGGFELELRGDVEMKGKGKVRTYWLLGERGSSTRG
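HEK293 cells stably expressing human Npr1 and cGMP GloSensor pGS-40F, loaded 2 h with 2% GloSensor reagent, given compound 30 min at room temperature. Luminescence read before and 20 min after 0.1 nM hNppA.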
* hit, by the source's call; ? = inconclusive; & = joins results of further samples; [ ] = remark or other dose. On the % scale 0 is the no-effect control and ±100 the full control effect; potency means the concentration at half of the fitted maximal effect.

molecule,NPR1 antag
COc1ccc(OC)c(S(=O)(=O)N2CCn3c(nn(CC4CC4)c3=O)C2)c1,-11.0%
COc1ccc2[nH]c3c(c2c1)CCNC31CCN(C(=O)C2CCC2)CC1,2.1%
COc1cccc(N2CCN(c3nc(C(=O)NCc4ccccc4F)cs3)CC2)c1,12.6µM*
COc1ccc(-c2cc(N3CCCN(C(=O)c4ccc(F)c(Cl)c4)CC3)n[nH]2)cc1,?
CC(=O)N1CCC(C(=O)NCC(=O)N2CCCCCCNC(=O)CC2c2ccccc2)CC1 (centres undefined),4.7%
CCn1cc(CN2CC(Oc3ccc(-c4noc(-c5cccnc5)n4)cc3)C2)cn1,1.0%
O=C(c1csc(-c2cccs2)n1)N1CCCC1c1nc2ccccc2[nH]1 (centres undefined),-8.9%
COC[C@@H]1CN(Cc2ccc(C)cn2)C[C@H]1C(=O)NC1CC1,-12.3%
CCOc1ccc(Nc2ncncc2-c2nc(-c3ccccc3)no2)cc1,2.5%
CN(C)C(=O)c1n[nH]c2c1CN(C(=O)CCc1ccccc1)CC2,-4.5%
O=C(Cc1ccccc1)N1CCc2c(nc(-c3ccccc3)[nH]c2=O)C1,-2.2%
COCCN(Cc1cccs1)C(=O)CN1CC2CC(C1)[C@H]1CCCC(=O)N1C2 (some centres undefined),3.6%
COc1cccc([S+](=O)([O-])N2CCC3(COc4ccccc4C(=O)N3)C2)c1 (centres undefined),-6.1%
COc1ccccc1N1CCN(C(=O)CCn2ccc(=O)[nH]c2=O)CC1=O,-0.9%
Cn1c(=O)[nH]cc(CC(=O)N2CCCC(c3cccc(C(=O)O)c3)C2)c1=O (centres undefined),-0.5%
O=C(NC1CCN(c2cc(-c3ccccc3)[nH]n2)CC1)c1cnccn1,4.6%
COc1ccc(C(=O)Nc2ccc([C@H]3OCC(=O)N(Cc4nccn4C)[C@@H]3CO)cc2)cc1,6.0%
O=C1NCCCCCN(C(=O)Cc2cccc(F)c2)[C@@H]2CCCC[C@H]12,4.8%
CC1(C)[C@H](Cc2cc(COc3ccccc3)on2)C[C@@H]1NC(=O)c1cccs1,39.8µM*
O=C(Nc1cccc(C(F)(F)F)c1)c1nc2c(o1)CCN(CC1CC1)CC2,-0.3%[70.6 µM]
Fc1cccc(-c2cn[nH]c2C2CCNCC2)c1,2.7%
Cc1cc(=O)cc(C(=O)NC2CC(c3cc(=O)[nH]c(C4CC4)n3)C2)o1 (centres undefined),1.9%
O=C(Nc1cccc(-c2ccc(N3CCOCC3)nn2)c1)Nc1ccc(F)cc1F,-23.9%
COc1cccc(NC(=O)c2ccc3c(c2)NC(C)(COc2ccccc2)CO3)c1 (centres undefined),?
CC(C)(C)C(=O)N1CCn2c(nnc2-c2ccccc2)C1,6.1%[70.6 µM]
COc1ccc(C2(C(=O)NC3CCc4n[nH]c(=O)n4CC3)CC2)cc1 (centres undefined),-2.4%
O=C(NCCc1ccncc1)C1CN(C(=O)c2ccc(F)cc2)CC12CCOCC2 (centres undefined),4.3%
O=C(C1=NO[C@@H]2CN(c3ccc(F)c(Cl)c3)C[C@H]12)N1CCOCC1,-11.4%[70.6 µM]
Cc1cc2nc3n(c(=O)c2n1CC(=O)Nc1ccccc1F)CCCC3,-3.2%
O=C(NCCc1noc(C2CC2)n1)C1CCC1,1.3%

Later entries.
molecule,NPR1 antag
O=C([C@H]1C[C@H](Oc2ccccc2)CN1C(=O)Cc1cccc(F)c1)N1CCOCC1,1.0%
CCOc1ccccc1NC(=O)N1CCc2nc(OCCOC)ccc2C1,-1.9%
COc1cccc2c1OCCCN(C(=O)C1COc3ccccc3C1)C2 (centres undefined),-3.4%
CC(C)Oc1ccccc1CN1CCC2(CC1)CC(O)CCO2 (centres undefined),-3.8%
C=Cc1ccc(Cn2c(=O)c(-c3noc(C)n3)c3n(c2=O)CCCCC3)cc1,-14.8%
CN1CCc2c([nH]c3ccccc23)C12CCN(C(=O)Cc1cccnc1)CC2,-11.5%
CN(Cc1ccccc1)C(=O)c1cnc2c(c1)N(C(=O)CCc1ccccc1)CCC2,-6.8%[70.6 µM]
N#Cc1cccnc1N1CCC(NC(=O)c2ccc3cccc(F)c3n2)CC1,0.5%
CCc1ccc(CNC(=O)CN2C(=O)NC3(CCOCC3)C2=O)cc1,27.1%
CC[C@@]1(O)CCN(C(=O)c2cccc(OCc3cccc(F)c3)c2)C[C@H]1O,2.7%
COc1ccc(C2(C(=O)N3CCN(C(=O)N4CC5CC(C4)[C@H]4CCCC(=O)N4C5)CC3)CC2)cc1 (some centres undefined),6.3%
CCOC(=O)CCNC(=O)N1CCC(Cc2noc(-c3ccncc3)n2)C1 (centres undefined),-4.9%
CNC(=O)C1CCN(C(=O)C2CN(c3ccc(OC)cc3)C(=O)N2)C1 (centres undefined),7.3%&0.0%[70.6 µM]
O=C(NCCC1CCN(C(=O)Nc2ccccc2F)CC1)C1CC1,-9.5%
CN(C)c1cccc(Oc2nnnn2[C@H]2CO[C@H]3[C@@H]2OC[C@@H]3NC(=O)Nc2cccc3ccccc23)c1,-10.9%
COCCn1c(C)cnc1CC1CCCN(C(=O)c2ccnn2C)C1 (centres undefined),-3.5%
CCc1cc(=O)n(CC(=O)N2CCN(c3ccccc3OC)CC2)c(-c2ccccc2)n1,-18.6%
Cc1noc(C)c1COc1ccc(C(=O)N[C@@H]2CN(C(=O)NC(C)C)CCC[C@H]2O)cc1,1.1%
COc1cccc(S(=O)(=O)N2CCC(Cc3nncn3C)C2)c1 (centres undefined),1.6%
O=C(N[C@H]1C[C@H]2C(=O)NC[C@@H](CCC(=O)N3CCCCC3)N2C1)c1ccco1,3.8%[70.6 µM]
C[C@H](O)c1onc(-c2ccccc2)c1C(=O)N1CCCCC1,-0.7%[70.6 µM]
O=C(C1CCN(c2cnc3nccnc3c2)CC1)N1CCCCCC1,-12.0%
CC1=C[C@@H](CNC(=O)COCC(=O)O)[C@H](C(C)C)C[C@H]1Cc1nc2ccc(C)cc2[nH]1,-2.5%[70.6 µM]
CC(C)c1ccc(NC(=O)CN2C(=O)C(c3ccccc3)=NC2(C)C)cc1,0.0%
O=[S+]([O-])(c1cccs1)N1CCCC2(CC(Cc3ccccc3)=NO2)C1 (centres undefined),0.0%
O=C(CCc1ccccc1)Nc1ccc([C@@H](O)[C@H]2COCC(=O)N2Cc2ccncc2)cc1,2.8%
COCCNC(=O)CN1C(=O)NC(c2ccccc2OC)C2=C1COC2=O (centres undefined),2.8%
Cc1cccc(-c2noc([C@@H]3Cc4nc[nH]c4CN3C(=O)NC3CCCCC3)n2)c1,-4.7%[70.6 µM]
COC(=O)CNC(=O)N1CCC(OC2CCN(S(C)(=O)=O)CC2)CC1,-11.5%
O=C1[C@@H]2C[C@@H](CN2Cc2ccc3c(c2)OCO3)Oc2ccccc2N1CC1CC1,-11.3%[70.6 µM]

More results follow:
molecule,NPR1 antag
O=C1NCCCCCN(Cc2cccnc2)[C@@H]2CN(C(=O)c3ccoc3)CC[C@@H]12,-4.2%
CC1(C(=O)NCCc2c[nH]c3ccccc23)CCCCC(=O)N1 (centres undefined),0.0%
O=C1[C@@H]2C[C@@H](CN2C2COC2)Oc2ccccc2N1Cc1ccccn1,-0.8%[70.6 µM]
COc1ccc(NC(=O)c2ccc3c(c2)NC(C)(COCC2CC2)CO3)cc1OC (centres undefined),-13.7%[70.6 µM]
CN1CCCN(C(=O)C2CCCO2)c2ccccc21 (centres undefined),0.5%
Cc1cc2nc3n(c(=O)c2n1CC(=O)NCc1ccc(Cl)cc1)CCCCC3,-4.5%
COc1ccc(C(=O)NCc2nnc3ccc(-c4ccc(F)cc4)nn23)c(OC)n1,5.0%
COc1cc(-c2nc3c([nH]2)CCCNC3=O)ccc1O,6.4%
CC1(c2ccccc2)N(Cc2ccccc2F)C(=O)OC12CCN(Cc1cccc(C#N)c1)CC2 (centres undefined),-17.6%
Cc1cc(=O)n(CC(=O)Nc2cc(Cl)ccc2C)c(N(C)Cc2ccccc2)n1,-2.6%
COc1ccc(C(=O)N2CCCN(c3cc(-c4ccc(F)cc4)[nH]n3)CC2)cc1,?
CCOc1cc(=O)n2c(c1C(=O)N1CCOCC1)CCCCC2,-1.6%
CCn1cc(C(=O)N2CCCCCCNC(=O)CC2)cn1,2.0%
Cc1ccc(S(=O)(=O)Nc2cccn3nc(C4CCC4)nc23)cc1,-6.9%
O=C(c1ccncc1)N1CCC2(CCCCO2)CC1,7.3%
CCn1ncc(CN2CCCCCNC(=O)[C@@H]3CCC[C@@H]32)c1C,-0.7%
Cc1ccc(S(=O)(=O)NCCn2c(C)cnc2C2CCC2)cc1F,-12.2%
O=C(N[C@H]1C[C@H]2C(=O)NC[C@@H](CCC(=O)N3CCCC3)N2C1)c1cccs1,-1.1%[70.6 µM]
Cc1ccc(NC(=O)N[C@H]2CCN3C(=O)[C@H]4CCCN4C(=O)[C@H]23)cc1,3.5%[70.6 µM]
COc1cccc(C(=O)NCCn2ccn3nc(-c4ccc(C)c(C)c4)cc3c2=O)c1OC,-11.6%
CN1CCc2c([nH]c3ccccc23)C12CCN(S(=O)(=O)c1cn(C)cn1)CC2,2.7%
CC(=O)Nc1ccc(CNC2(Cc3cc(CN4CCOCC4)on3)COC2)cc1,0.4%[70.6 µM]
COc1ccc(-c2noc(-c3nnn4c3COC(c3ccc(F)cc3)C4)n2)cc1F (centres undefined),5.9%
O=C(Nc1ccc(F)cc1)c1ccc2c(c1)OCCN(c1ccccc1)C2,31.6µM*
CCc1ccccc1NC(=O)Cn1c(=O)c(-c2noc(C)n2)c2n(c1=O)CCCC2,4.7%
COc1ccc(C(=O)N2CCC(c3n[nH]c(=O)n3-c3ccc(C)cc3)CC2)cc1F,13.2%
N#Cc1ccc(S(=O)(=O)N2CCCCCNC(=O)CC2c2ccccc2)cc1 (centres undefined),-2.7%
Cc1cnc(C)c(N2CCN(CC3(O)CCNC3)CC2)n1 (centres undefined),4.5%
COCC1CN(C(=O)c2ccc(OC)nc2OC)CC12CCNCC2 (centres undefined),3.2%
O=C(COc1ccc(-c2nnc3n2CCCC3)cc1)Nc1ccc(Br)cc1,-1.6%

(next part)
SMILES	NPR1 antag
CN(C)CCNC(=O)c1nc2nc(-c3ccccc3)c(-c3ccccc3F)cc2n1C	?
COc1cc(OC)cc(C(=O)N2CCC3(CC2)N=C(c2ccc(Cl)cc2)NO3)c1	-25.7%
Cc1cnc(C)c(N2CCC(COc3cnc4c(ccn4CC(N)=O)c3)CC2)n1	?
COc1ccc2c(c1)C(NC(=O)c1cn(CCN)nn1)CC(C)(C)O2 (centres undefined)	0.5%
CCc1noc(-c2cccn3c(CNC(=O)CCC4CCCC4)nnc23)n1	2.1%
COc1cccc(CNC(=O)CN2C(=O)NC3(CCOCC3)C2=O)c1OC	1.2%
COc1ccc(C(=O)NC2CCN(c3cc(C(F)(F)F)nc(C)n3)CC2)c(C)c1	-25.2%
O=C(c1ccccc1)N1CCC(n2cc(-c3nc(C4CC4)no3)nn2)C1 (centres undefined)	-14.6%
O=C(Cn1ccn2nc(-c3ccc(F)cc3)c(CO)c2c1=O)NCc1ccc(Cl)cc1	7.2%
Cc1noc(C)c1C(=O)NCC(=O)N1CCCCCCNC(=O)CC1c1ccccc1 (centres undefined)	-13.6%
Fc1cc(Nc2ncc(-c3cccnc3)c3c2OCC3)cc(N2CCOCC2)c1	-2.8%[70.6 µM]
COc1ccc(Cn2c(C3CCN(C(=O)c4ccc(Cl)cc4)CC3)n[nH]c2=O)cc1	-3.7%

In another format: results already given.
CCc1noc(-c2cccn3c(CNC(=O)CCC4CCCC4)nnc23)n1
  NPR1 antag = 2.1%

COc1cccc(CNC(=O)CN2C(=O)NC3(CCOCC3)C2=O)c1OC
  NPR1 antag = 1.2%

COc1ccc(C(=O)NC2CCN(c3cc(C(F)(F)F)nc(C)n3)CC2)c(C)c1
  NPR1 antag = -25.2%

Shown as labelled records: entries from further up.
> Cc1noc(C)c1COc1ccc(C(=O)N[C@@H]2CN(C(=O)NC(C)C)CCC[C@H]2O)cc1
  NPR1 antag = 1.1%

> COc1cccc(S(=O)(=O)N2CCC(Cc3nncn3C)C2)c1 (centres undefined)
  NPR1 antag = 1.6%

Continued:
SMILES	NPR1 antag
O=C(N[C@@H]1CN(C(=O)Cn2c(=O)oc3ccccc32)CC[C@@H]1CO)C1CC1	4.4%
COc1ccc(CNC(=O)C[C@@H]2C[C@@H](C(C)C)[C@H](CNC(C)=O)C=C2C)cc1	-4.0%[70.6 µM]
CCC(=O)N1CC(=O)N(CC)C2(CCOCC2)C1	3.6%
CC(=O)N1CCN(c2ncnc3c2CN(C2CCC2)C(=O)CN3C)CC1	-3.7%
CNC(=O)C1(N2CCC[C@H]2C(=O)NCCNC(C)=O)CCCCC1	4.9%[70.6 µM]
CCCC1CCN(C(=O)c2coc(COc3ccc4ccc(OC)cc4c3)n2)C1 (centres undefined)	-29.9%
CC(=O)c1ccc(NC(=O)N[C@H]2CO[C@H]3[C@@H]2OC[C@H]3OC(=O)NC2CCCCC2)cc1	0.2%[70.6 µM]
C[C@H]1[C@@H]2[C@@H](O)C([C@H](C)C(=O)NC3CCCC3)CC[C@@]2(C)CC[C@@H]1NC(=O)c1ccc(C#N)cc1 (some centres undefined)	1.4%
CC(=O)Nc1ccc(S(=O)(=O)N2CC[C@H](c3nnc(C)o3)C2)cc1	-0.2%[70.6 µM]
CNC(=O)[C@@H]1CN(C(=O)CCn2cccn2)C[C@H]1COC	1.7%
O=S(=O)(NC[C@H]1O[C@@H](CO)[C@@H](O)[C@H]1N1CCN(c2ccccc2)CC1)c1ccc(F)cc1	-4.6%

A portion of the library; rates above refer to the full screens.
